PKD1 inh = inhibitors of human PKD1 kinase. Q15139. PKD1 kinase fluorescence polarization assay. inhibition, %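 (about 10 µM by stock and volumes)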. 200,000 compounds, 0.056% hits. AID 797;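 active = inhibition of 50% or more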;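 also: controls were vehicle for no effect and a reference inhibitor for full effect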
GALR2 agonist = GALR2 (human) receptor agonism; O43603; GALR2-expressing cells, agonist activation read-out; activation, %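 (tested at 5 µM)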; 140,000 compounds, 0.48% hits; AID 803;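 active = above mean plus 3 SD of all compounds, about 5% in these data, not always enough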;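 also: 0% = vehicle buffer wells and 100% = reference agonist at full effect; tested in CHO reporter cells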
Target sequence (O43603 whole entry, looked up): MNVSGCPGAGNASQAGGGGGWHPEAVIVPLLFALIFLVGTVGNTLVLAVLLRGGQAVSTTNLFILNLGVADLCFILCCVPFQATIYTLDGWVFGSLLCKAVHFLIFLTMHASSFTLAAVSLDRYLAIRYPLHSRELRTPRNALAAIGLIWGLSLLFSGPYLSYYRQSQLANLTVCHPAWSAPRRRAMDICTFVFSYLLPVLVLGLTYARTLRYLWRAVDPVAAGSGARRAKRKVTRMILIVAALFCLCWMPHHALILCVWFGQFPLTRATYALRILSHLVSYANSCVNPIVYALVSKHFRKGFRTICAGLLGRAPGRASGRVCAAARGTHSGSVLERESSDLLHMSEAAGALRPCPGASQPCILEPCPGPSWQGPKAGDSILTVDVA
RGS16-Gao = modulates binding between human RGS16 and Galphao | O15492+P09471 | bead-based flow cytometry RGS16-Galphao binding, fluorescence; actives lie on both sides | binding response (% of control), % at 10 µM | 220,000 compounds, 0.38% hits;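 active = below 25% or above 175%, edge rows of some plates excepted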;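 also: Galphao activated by GDP with aluminum fluoride before binding; 100% = wells without compound and 0% = beads without RGS; some results beyond the cut were filed as inactive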
Target sequence (O15492 whole entry, looked up): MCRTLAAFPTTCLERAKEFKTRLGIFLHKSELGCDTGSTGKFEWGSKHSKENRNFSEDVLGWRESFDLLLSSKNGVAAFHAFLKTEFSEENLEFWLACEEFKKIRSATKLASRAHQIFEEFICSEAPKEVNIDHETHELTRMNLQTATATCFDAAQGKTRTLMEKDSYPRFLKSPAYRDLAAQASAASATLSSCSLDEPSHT
Target sequence (P09471 whole entry, looked up): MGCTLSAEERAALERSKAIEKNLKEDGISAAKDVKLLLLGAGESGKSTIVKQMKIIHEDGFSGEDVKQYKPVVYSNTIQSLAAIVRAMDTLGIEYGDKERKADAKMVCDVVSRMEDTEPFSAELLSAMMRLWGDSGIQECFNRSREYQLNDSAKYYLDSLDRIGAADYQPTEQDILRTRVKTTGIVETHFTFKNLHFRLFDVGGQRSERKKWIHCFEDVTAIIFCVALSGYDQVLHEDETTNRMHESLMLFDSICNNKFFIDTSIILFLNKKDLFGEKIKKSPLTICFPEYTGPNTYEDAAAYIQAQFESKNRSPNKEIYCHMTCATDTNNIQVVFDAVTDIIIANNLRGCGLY
Insulin prom inh = TRM-6 insulin promoter activity inhibition | TRM-6 cells (human fetal islet line), insulin promoter-eGFP reporter, imaging; reporter expression induced with tamoxifen | inhibition, % at 2 µM | 130,000 compounds, 0.9% hits | AID 1273;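 active = inhibition above the mean plus 3 SD, with well images judged a real hit on visual review, cut at about 60% in these data, passing the limit was not always enough; inconclusive = inhibition over the cutoff but images rejected on review; inactive = inhibition not above the cutoff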
HSV replic up = increases HSV replication in cells. 220,000 compounds, 0.005% hits. HSV replication augmentation in cells, fold increase. maximum fold increase;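 active = peak rise of 1.5-fold or more in the series; inconclusive = self-fluorescent or not available for retest; tested in PC3 cells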;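 also: first round at 10 µM; read as green reporter fluorescence; hits show the peak of a series up to 25 µM; 1 = signal of infected wells without compound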
Insulin prom inh cell count = further read-out of Insulin prom inh, marked with its call; normalized cell count, %; measured here: cell count, toxicity; reference of the scale not given here;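 cells exposed to compound for 48 h; stained nuclei by imaging scaled within each plate; lower means fewer cells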
HSV replic up primary fold = also measured in HSV replic up; calls as there; fold increase; compound at 10 µM; measured here: primary screen fold increase 10 uM; tested in PC3 cells;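 GFP signal in the first replicate; 1 = infected wells without compound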
Active calls of the source: *; i = inactive; u = inconclusive; x = not tested or not shown.

SMILES	PKD1 inh	GALR2 agonist	RGS16-Gao	Insulin prom inh	Insulin prom inh cell count	HSV replic up	HSV replic up primary fold
CC(=O)C1=C(C)NC(SCC(=O)c2ccc(Cl)cc2Cl)=C(C#N)C1c1ccco1 (centres undefined)	9	0.8	103	7	162	i	1
COCCn1c(SCC(=O)N2CCc3ccccc3C2)nc2ccccc2c1=O	3	-1.1	105	6	59	i	1
CC(=O)Nc1ccc(S(=O)(=O)Nc2nnc(C(C)(C)C)s2)cc1	2	1.1	105	-12	98	i	0.96
CS(=O)(=O)c1ccc(Cl)c(NC(=O)Cc2c(F)cccc2Cl)c1	-2	x	98	-17	112	i	1.2
S=c1nc(-c2cccc(Br)c2)[nH][nH]1	2	-1.9	38	x	x	i	1.3
COc1cc(OC)cc(C(=O)N[C@H](C(=O)OCC(=O)NC(=O)c2cccn2C)C(C)C)c1	0	x	92	-82	91	i	1.1
Cc1c(Cc2ccc3c(c2)OCO3)sc(NC(=O)C2CC2)c1C(N)=O	x	x	96	x	x	i	0.67
Cc1ccc(/C=C/C(=O)O)cc1S(=O)(=O)NCCO	-12	-2.0	100	22	106	i	0.88
CCOc1ccccc1N1C(=O)CC(Nc2ccc(N3CCOCC3)cc2)C1=O (centres undefined)	1	-2.4	-173	17	126	i	1.1
CCCn1c(C(O)c2cc(OC)ccc2OC)nc2ccccc21 (centres undefined)	-5	-0.6	100	-83	147	x	x

Part of the list above, with two lines to a compound.
Values in the order: PKD1 inh, GALR2 agonist, RGS16-Gao, Insulin prom inh, Insulin prom inh cell count, HSV replic up, HSV replic up primary fold
COc1cc(OC)cc(C(=O)N[C@H](C(=O)OCC(=O)NC(=O)c2cccn2C)C(C)C)c1
 : 0, x, 92, -82, 91, i, 1.1
Cc1c(Cc2ccc3c(c2)OCO3)sc(NC(=O)C2CC2)c1C(N)=O
 : x, x, 96, x, x, i, 0.67
Cc1ccc(/C=C/C(=O)O)cc1S(=O)(=O)NCCO
 : -12, -2.0, 100, 22, 106, i, 0.88
CCOc1ccccc1N1C(=O)CC(Nc2ccc(N3CCOCC3)cc2)C1=O (centres undefined)
 : 1, -2.4, -173, 17, 126, i, 1.1
CCCn1c(C(O)c2cc(OC)ccc2OC)nc2ccccc21 (centres undefined)
 : -5, -0.6, 100, -83, 147, x, x

The list goes on:
SMILES	PKD1 inh	GALR2 agonist	RGS16-Gao	Insulin prom inh	Insulin prom inh cell count	HSV replic up	HSV replic up primary fold
O=C(NCN1C(=O)C2C3C=CC(C3)C2C1=O)Nc1cccnc1 (centres undefined)	1	-0.3	46	x	x	i	0.86
CCOc1cc(/C=N/NC(N)=O)cc(Br)c1OCC(=O)Nc1cccc2ccccc12	3	1.6	107	-35	159	i	0.79
CN(c1cccc(NC(=O)Nc2cccc(Cl)c2)c1)S(C)(=O)=O	-4	0.5	98	-227	97	i	0.95
Cc1noc(C)c1C1(O)CCCCCCCCCCC1	2	-0.2	84	-18	75	i	0.96
Cn1/c(=N/N=C/c2ccc([N+](=O)[O-])cc2)sc2ccccc21	-8	-1.8	95	6	49	u	x
O=C(NCCN1CCOCC1)NC1(C(F)(F)F)Oc2ccc(Cl)cc2O1 (centres undefined)	2	-0.8	93	-118	83	i	0.88
CCN(C(=O)c1c(N)cnn1C)c1ccccc1	1	x	111	-52	72	i	0.93
O=C(Nc1ccc(-c2noc(CCc3ccccc3)n2)cc1)c1cccnc1	0	-1.6	93	x	x	i	0.94
O=C(CCCCn1c(=O)c2ccccc2n(Cc2ccc(F)cc2)c1=O)NCc1ccco1	-10	1.2	99	x	x	i	0.78
OCc1ccnc(Cl)c1	-4	0.3	67	-35	89	i	0.97
Clc1ccc(OCCn2c(-c3ccco3)nc3ccccc32)cc1	-6	-2.0	108	17	29	i	0.96
O=C(CCSc1ccccc1)NC1CCCCCC1	-8	x	103	x	x	i	0.98
O=C(COc1ccc(Cl)cc1[N+](=O)[O-])NC1CCCCC1	5	x	96	x	x	i	0.97
O=C(CSc1ncccn1)NCc1cccs1	3	x	105	x	x	i	1
CCOc1ccc(-n2nc3c(-n4ncc(C#N)c4N)nnc(C)c3c2C)cc1	-2	-0.1	x	-79	84	x	x
CC(=O)/C(=C\N(C)C)Sc1ccc(C)cc1	x	x	101	x	x	i	0.95
COCCNc1ncnc2c1cnn2Cc1ccc(Cl)cc1	-14	-2.0	98	-73	158	i	0.97
O=C(O)c1ccc(N/N=C/C=C/c2ccccc2)cc1	x	x	88	x	x	i	0.84
Cc1cc2oc(=O)cc(Cn3nnc(-c4ccc(Cl)cc4)n3)c2cc1C(C)C	-1	-1.4	95	x	x	i	1.1
Nc1ccccc1C(=O)NNc1c2ccccc2nc2ccccc12	x	x	102	x	x	i	0.87
Cn1c(C(=O)c2ccncc2)cc2ccccc21	x	x	108	x	x	i	1
O=C(Nc1nccs1)c1cccc(N2C(=O)c3cccc4c([N+](=O)[O-])ccc(c34)C2=O)c1	-1	0.0	100	-2	122	x	x
COc1ccc(C(=O)CN2C(=O)NC3(CCCCC3)C2=O)cc1OC	-3	x	101	x	x	i	0.98
O=C1Nc2ccccc2S/C1=C/Nc1cccc(Cl)c1	0	2.1	111	x	x	i	0.7
O=C1C2=C(Nc3ccccc3SC2c2ccco2)c2ccccc21 (centres undefined)	-2	-1.2	104	x	x	i	0.9
Cc1cc(C(F)(F)F)nn1CC(=O)NNC(=S)Nc1cccc(Cl)c1	6	-0.7	104	0	83	i	1.1
CCC(c1c(C)n(C)n(-c2ccccc2)c1=O)c1c(C)n(C)n(-c2ccccc2)c1=O	0	-0.3	108	-14	118	i	0.77
O=C(c1cc2nc(-c3ccco3)cc(C(F)(F)F)n2n1)N1CCCCCC1	-3	1.6	98	x	x	i	0.97
CC(C)(C)CC(=O)NC(=S)N1CCCCCC1	0	-0.5	100	10	102	i	1
CC(C)(O)C#Cc1ccc(C(=O)NCc2cccs2)s1	-5	-2.1	84	0	119	i	0.93
COc1ccc(NC(=O)CSc2nnc(C)n2Cc2ccccc2)cc1	1	-1.1	104	-43	48	i	1
Nc1cc2c(cc1[N+](=O)[O-])OCCOCCOCCO2	3	x	103	x	x	i	0.9
COc1ccc(CNC(=O)C(=O)NCC(c2ccco2)N2CCOCC2)cc1 (centres undefined)	-6	-0.2	101	-27	120	i	0.79
CCN(CC)C(=O)COc1ccc2oc(C)c(C(=O)OC)c2c1	-11	-2.0	110	-162	24	i	0.95
O=C(NC1CCCCCC1)c1ccc(CN2CCOCC2)cc1	-1	-2.0	103	22	54	x	x
CCOc1ccccc1OCCOCCN1CCN(Cc2ccccc2)CC1	-7	x	102	x	x	i	0.95
COc1ccc2cc(CN(CCO)C(=O)c3ccc(Br)cc3)c(=O)[nH]c2c1	6	-0.2	105	41	146	i	1
CCCCCCC1CCC(C(=O)Nn2c(C)nc3ccccc3c2=O)CC1 (centres undefined)	6	-1.3	95	x	x	i	0.84
Cc1[nH]n(-c2ccc(Cl)c(Cl)c2)c(=O)c1CCO	9	x	101	x	x	i	0.86
CCOC(=O)N/N=C(\C)c1ccc(C)c([N+](=O)[O-])c1	-1	-1.1	104	-23	90	i	0.97
O=C(O)COc1ccc2c3c(c(=O)oc2c1)CCC3	-7	-2.2	100	-17	49	i	0.87
CC(C)(C)NC(=O)C(=O)NNC(=O)COc1ccc(Br)cc1	-1	-0.4	46	-13	101	i	0.98
COc1ccc(OCC(O)Cn2c(N)nc3c2c(=O)[nH]c(=O)n3C)cc1 (centres undefined)	x	x	96	x	x	i	0.99
CC1N(C)c2cc(NC(=O)c3ccco3)ccc2C1(C)C (centres undefined)	6	-0.4	98	x	x	i	1
O=C(C1CCN(c2nnc(-n3cccc3)s2)CC1)N1CCOCC1	-18	-2.3	94	100*	63*	i	0.94
CC(C)CC(=O)NC(=S)Nc1ccccc1N1CCCC1	x	x	89	x	x	i	1.1
C=CCNC(=O)c1c(-c2c(F)cccc2Cl)noc1C	6	-0.7	127	7	149	i	1.1
O=C(Cn1ccc(C(F)(F)F)n1)N/N=C/c1cccs1	-1	0.8	105	11	65	i	1.1
CC1CCCCN1S(=O)(=O)c1ccc(S(=O)(=O)N2CCN(c3ccccc3)CC2)cc1 (centres undefined)	-10	-2.2	103	18	123	i	0.63
C=CCNC(=S)Nc1ccc(C(N)=O)cc1	-4	x	96	x	x	i	1

The list goes on:
SMILES	PKD1 inh	GALR2 agonist	RGS16-Gao	Insulin prom inh	Insulin prom inh cell count	HSV replic up	HSV replic up primary fold
Cc1cc(NC(=O)c2cccnc2)ccc1NC(=O)c1ccco1	-7	-1.6	102	29	79	i	0.82
COc1cc(-c2nnc(SCc3c(F)cccc3Cl)o2)cc(OC)c1OC	-2	0.7	103	22	114	i	1
COc1ccc([N+](=O)[O-])cc1NC(=O)C1CCCO1 (centres undefined)	-13	0.4	106	-13	99	i	0.92
Cc1ccc2ccccc2c1COC(=O)c1nonc1N	-5	-0.8	102	-343	64	i	1.1
Cn1cccc1C(C(=O)NC1CCCCC1)N(C(=O)Cc1cccs1)c1ccc2c(c1)OCO2 (centres undefined)	4	-2.5	117	-14	88	i	0.87
CCNc1nc(SCCOc2ccc(Cl)cc2Cl)nc(N(C)C)n1	-3	x	99	-41	114	i	0.84
CC1(C)CC2CC(C)(CN2C(=O)COc2cccc3ccccc23)C1 (centres undefined)	-4	-1.8	97	-23	113	i	1
Oc1ccc(N=C/C=C/c2cccc(Br)c2)cc1-c1nc2ccccc2s1	-5	-1.9	95	58	104	i	1
COc1cc2c(cc1C1NC(=S)NC(C)=C1C(=O)N(C)C)CCCC2 (centres undefined)	-1	-1.8	100	-57	109	i	1
Cc1ccc(-n2c3c(cc(C(=O)NCc4ccco4)c2=O)C(=O)CC(C)(C)C3)cc1	-6	-1.4	97	8	85	i	0.98
CCc1ccc(OCC(=O)Nc2ccc3c(c2)COC3=O)cc1	-3	-1.1	102	53	127	i	0.8
CCOC(=O)N1CCN(C(=O)C2COc3ccccc3O2)CC1 (centres undefined)	-5	1.2	111	x	x	i	0.74
O=C(CCCN1C(=O)/C(=C/c2ccccc2)SC1=S)Nc1ccc(O)cc1	-4	x	98	-61	140	i	0.73
CCOc1ccccc1-n1c(SCC(=O)NC)nnc1-c1ccco1	1	-2.3	101	x	x	i	1
Cc1ccc(C(=O)O)cc1NC(=O)c1cccs1	-9	-4.8	98	6	80	i	0.67
O=c1nc2n(c3cc(Cl)c(S(=O)(=O)N4CCOCC4)cc13)CCCCC2	-14	-1.4	99	x	x	i	1
C=CCn1c(SCC(=O)NC2CCCCC2)nc2ccccc2c1=O	-2	x	97	x	x	i	1.1
S=C(N/N=C/c1ccc(Cl)cc1)N1CCOCC1	-5	0.2	105	-33	107	i	1.1
CN1/C(=C\C=O)C(C)(C)c2ccccc21	6	x	108	-67	120	i	1
COc1ccc(C(=O)NCCCOc2cccc(NC(C)=O)c2)cc1	x	x	105	x	x	i	1.1
CC(C)C(=O)Nc1ccc(C(=O)NC2CCSC2=O)cc1 (centres undefined)	2	-2.4	102	-9	100	i	0.85
CC1CCN(C(=O)CSc2nnc(Cc3cc(=O)[nH]c(=O)[nH]3)n2-c2ccc(Cl)cc2)CC1	-8	-0.4	84	x	x	i	1
O=C(NNC(=O)c1cccc([N+](=O)[O-])c1)c1ccncc1	8	x	52	x	x	i	0.94
Cc1c(C)c(C)c2[nH]c(=S)[nH]c2c1C	x	x	101	x	x	i	0.94
C=C(C)C1CC=C(C)/C(=N/NC(=O)COc2ccc(Cl)cc2)C1 (centres undefined)	8	-0.8	98	-86	103	i	0.95
CC(C)(C)n1cnc2cc(NS(=O)(=O)c3ccccc3)ccc21	-10	-1.9	98	32	159	i	1
CCn1c(=O)n(CC)c2cc(S(N)(=O)=O)c(C)cc21	-9	-1.2	101	i	41	i	1.3
Cn1cc(CC(=O)N2CCN(c3ccc(Cl)cc3)CC2)c2ccccc21	-12	-1.4	105	-25	104	i	1.1
COC(=O)c1c(NC(=O)CN2CCC3(O)CCCCC3C2c2cc(OC)ccc2OC)sc(C)c1C (centres undefined)	11	-0.9	105	64*	122*	i	1
O=C(CN1C(=O)c2ccccc2S1(=O)=O)Nc1ccccc1C(=O)NCc1ccco1	-1	-2.2	107	21	140	i	1
